TRPML1 agonist: activates the human TRPML1 channel | Q9GZU1 | TRPML1-expressing cells, Ca2+ dye fluorescence, FDSS; host cell line not named in the record; reference of the full effect not given here | activation, % (test concentration not listed) | hit rate 0.12% among 410,000; in the data active = activation above about 50%; inconclusive = about 30% to 50%; inactive = below about 30%; further: 0% is about no effect; the text of the record puts the active cut at 80%
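In this qHTS format, compounds were pin-transferred onto Ca8-dye-loaded TRPML1-DL cells induced with Tet overnight, and intracellular Ca2+ fluorescence was recorded kinetically for 110 s after a 10 s baseline. A subsequent 4uM final 54-4 (EC80) addition followed by a second 110 s read served as the antagonist phase.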
TRPML1 blocker: blocks the human TRPML1 channel; Q9GZU1; TRPML1-inducible cells, Ca2+ dye fluorescence, FDSS; stronger effect = lower value; inhibition of EC80 agonist-evoked calcium signal; activity change, negative = inhibition, % (no concentration beside the values); hit rate 0.02% among 390,000; in the data active means activity change below about -50%; inconclusive means about -30% to -50%; inactive means above about -30%;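 further: stimulus is agonist 54-4 at its EC80 concentration; on the % scale 0 is the no-effect control and ±100 the full control effect; compound concentration not given in the record; the text of the record puts the active cut at -80%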
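Calcium fluorescence in TRPML1-DL cells induced overnight with Tet: a 110 s read after compound pin addition, then a 110 s antagonist read after challenge with 54-4 at 4 uM final (EC80).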
PINK1 expr mod: PINK1 expression modulation | Potency, µM (titrated, usually from 76.6 µM), for the others: at the highest dose activation (PINK1 increase), actives largely listed as activators | hit rate 0.2% among 410,000 | AID 624263 | PINK1 immunofluorescence, high-content cytometry, 24 h; active = well fitted activation curve with a large enough effect; inconclusive = small, poorly fitted or top-dose-only effect; inactive = flat fitted curve, though single readings scatter; cell line not stated here;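 further: potency means the concentration at half of the fitted maximal effect; % of control where 0% means no effect; nearly all actives have a fitted effect of over 65% in size; a mitochondrial uncoupler was the plate control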
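Stable cell line treated 24 h with compounds at 5 concentrations (CCCP controls), then fixed and immunostained for PINK1 plus nuclear and cell stains; PINK1 immunofluorescence quantified by laser-scanning microplate cytometry.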
Sfp PPTase inh: inhibitors of Bacillus subtilis Sfp phosphopantetheinyl transferase | Q9F4F7 | Biochemical Sfp PPTase activity, qHTS | Potency, µM, without a hit: max response, negative = inhibition, actives largely listed as inhibitors | hit rate 3.5% among 310,000; active means well fitted inhibition curve with a large enough effect; inconclusive means small, poorly fitted or top-dose-only effect, or another doubt; inactive means no such curve, though single readings can be large or run the other way;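 further: the enzyme is Sfp with the accession as filed and its product quenches rhodamine fluorescence; potency means the concentration at half of the fitted maximal effect; 0% = enzyme reaction without inhibitor and -100% = no enzyme wells; top concentration of the series not given in the record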
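Buffer: 50 mM Hepes-Na pH 7.6, 10 mM MgCl2, 0.01% Nonidet P-40, 0.01% BSA. Enzyme 15 nM, pre-exposed to compound 15 min; substrates then added and fluorescence change tracked over 30 min.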
ClpP mod: qHTS Assay for Activators of ClpP | ATP-dependent Clp protease proteolytic subunit (Bacillus subtilis (strain 168)), P80244 | Potency, µM (series often up to 57.5 µM), inactives show at the highest dose activity change, negative = active | AID 651965, 2013 | hit rate 1.9% among 340,000 | purified B. subtilis ClpP, FRET peptide cleavage, 20 min; active = well fitted falling curve with a large enough effect; inconclusive = small, poorly fitted or top-dose-only effect; inactive = no such curve, though single readings can be large or run the other way; further: potency means the concentration at half of the fitted maximal effect; the source files actives as falling curves though it sought activators and does not explain the sign; nearly all actives have a fitted effect of over 65% in size; many hits overshoot -100%
Target sequence (P80244 whole entry, looked up): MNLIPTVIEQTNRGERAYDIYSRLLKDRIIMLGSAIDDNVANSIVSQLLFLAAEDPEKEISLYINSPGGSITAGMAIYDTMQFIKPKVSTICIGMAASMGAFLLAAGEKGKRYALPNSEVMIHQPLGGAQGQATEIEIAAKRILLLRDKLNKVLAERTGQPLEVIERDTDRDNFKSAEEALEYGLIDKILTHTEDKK
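Purified B. subtilis ClpP, 10 microg/mL final in Tris/HCl pH8 with KCl, BSA, glycerol and Tween-20, cleaved an Abz/nitrotyrosine-quenched decapeptide. Fluorescence (ex 320, em 430) was read at 0 and 20 min at room temperature. Delta was normalized to 5.8 microM ADEP and DMSO/no-enzyme controls.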
TRPV1 PAM: human TRPV1 potentiation; Q8NER1; TRPV1-expressing cells, Fluo-8 calcium influx, capsaicin EC20 potentiation; host cell line not named in the record; control for the full effect not named in the record; potentiation, % at 8.33 µM; hit rate 0.02% among 320,000; AID 540277; active means potentiation above 80%; inconclusive means 30% to 80%; inactive means below 30%; further: 0% is about no effect
Target sequence (Q8NER1 whole entry, looked up): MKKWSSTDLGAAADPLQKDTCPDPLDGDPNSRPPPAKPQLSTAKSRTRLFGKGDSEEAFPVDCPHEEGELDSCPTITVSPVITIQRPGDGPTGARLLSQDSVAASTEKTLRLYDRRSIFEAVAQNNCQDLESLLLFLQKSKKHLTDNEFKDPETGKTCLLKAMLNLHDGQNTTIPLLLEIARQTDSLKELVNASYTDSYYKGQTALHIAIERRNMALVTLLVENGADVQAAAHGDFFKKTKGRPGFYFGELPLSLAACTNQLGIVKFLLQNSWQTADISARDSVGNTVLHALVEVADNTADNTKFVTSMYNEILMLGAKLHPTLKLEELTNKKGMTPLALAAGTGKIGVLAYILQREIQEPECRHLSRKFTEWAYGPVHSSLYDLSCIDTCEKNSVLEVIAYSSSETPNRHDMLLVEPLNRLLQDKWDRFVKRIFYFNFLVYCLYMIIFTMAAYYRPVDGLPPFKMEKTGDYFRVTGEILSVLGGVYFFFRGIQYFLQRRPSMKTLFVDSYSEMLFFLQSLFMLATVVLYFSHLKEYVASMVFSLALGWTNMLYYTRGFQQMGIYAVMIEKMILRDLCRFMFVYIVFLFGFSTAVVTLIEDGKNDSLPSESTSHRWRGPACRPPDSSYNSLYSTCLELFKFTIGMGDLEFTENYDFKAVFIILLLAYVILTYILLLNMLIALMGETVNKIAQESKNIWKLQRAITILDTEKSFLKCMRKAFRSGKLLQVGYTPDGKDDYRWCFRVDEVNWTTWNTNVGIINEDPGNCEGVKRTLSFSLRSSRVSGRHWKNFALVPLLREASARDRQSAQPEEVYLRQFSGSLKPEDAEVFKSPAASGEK
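Fluo-8 calcium influx in TRPV1-expressing cells, kinetic read (ex 480/em 520 nm). Compound added and read 3 min for agonist activity, followed by capsaicin at EC20 final and 2 min further read for enhancement.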
Menin-MLL FL inh: menin-MLL binding inhibition, fluorescein peptide | FP activity change, % at 61.4 µM | 290,000 tested, under 10 active | Fluorescence polarization, fluorescein-MLL peptide displacement from menin; inconclusive = falling polarisation curve, or a change in total fluorescence; inactive = total fluorescence flat and polarisation flat or rising; no compound was filed as active; the % refers to the polarisation; negative = inhibition;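 further: % of control where 0% means no effect; inhibitors lower the polarisation; unlabelled MLL peptide was the positive control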
Starred values were filed as active, the others as inactive; ? = inconclusive; / = not tested or not shown; & = joins results of further samples; ! = not confirmed by another sample; [ ] = another dose, or the depositor's remark.

SMILES | TRPML1 agonist | TRPML1 blocker | PINK1 expr mod | Sfp PPTase inh | ClpP mod | TRPV1 PAM | Menin-MLL FL inh
Cc1c(NC(=O)CN2CCN(c3ccccc3)CC2)c(=O)n(-c2ccccc2)n1C | -0.9 | 1 | -1.1% | 11% | -2.1% | -2 | 1.1
Cc1ccc(Nc2ncc3c(=O)[nH][nH]c(=O)c3n2)cc1 | 0.5 | 10 | -0.6% | / | / | / | /
Nc1ccc(C(=O)N2CCCC2)cc1 | 2.1 | 3 | -2.3% | 6% | 1.0% | -8 | -1.2
Cc1c(NCc2ccncc2)cccc1C(=O)O | -0.2 | 3 | 0.3% | 16% | -0.5% | 9 | 1.7
CSc1nncn1/N=C/c1cc(Cl)ccc1F | 1.2 | -8 | 1.4% | -7% | -1.2% | 1 | 2.5
Cn1c(=O)n(CCO)c(=O)c2c1nc(Br)n2Cc1ccccc1 | / | / | 2.7% | 5% | 0.9% | -4 | -2.1
COc1cccc2[nH]c3ccccc3c(=O)c12 | / | / | 3.3% | 7% | 4.0% | 3 | -8.4
CC(NC(=O)c1ccncc1)C(C)(C)C (configuration not stated) | 0.7 | 18 | 4.2%[38.3 µM] | -5% | -1.2% | 5 | -0.3
Cc1cc(C)cc(C(=O)N2CC(C)OC(C)C2)c1 (configuration not stated) | -0.3 | 5 | / | -1% | 0.5% | -1 | -3.0
COc1ccc(C2(c3ccc(OC)cc3)NC(=O)N(CC(=O)Nc3ccc(OC)c(OC)c3)C2=O)cc1 | 0.3 | -7 | 3.5% | 16% | / | 0 | -0.2
COC(=O)c1ccc(OCC(=O)NCCC2=CCCCC2)c(OC)c1 | -1.5 | 6 | 3.8% | / | -5.0% | / | /
O=S(=O)(NCc1ccc2c(c1)OCO2)c1ccccc1F | -0.2 | -3 | -1.5% | 3% | / | -3 | -1.4
O=C(CSc1nnc(CNC(=O)c2ccccc2)o1)NCc1ccccc1 | 0.0 | 14 | -1.5% | -11% | -5.0% | 2 | 3.4
CN(C)S(=O)(=O)c1cccc(NC(=O)CCNC(=O)c2ccccc2Cl)c1 | -0.2 | -24 | 0.7% | 8% | -9.0% | 16 | -1.8
NC(Cc1ccc(Cl)cc1)c1csc(NC(=O)NCCc2ccccc2)n1 (configuration not stated) | 0.8 | / | -0.9% | / | -3.0% | / | /
O=c1[nH]c(C2CCN(S(=O)(=O)c3ccc(S(=O)(=O)NC4CC4)cc3)CC2)nc2c1nnn2Cc1ccccc1 | 0.6 | -10 | 0.8% | -4% | / | 0 | /
COc1ccc2sc(-c3ccc(S(C)(=O)=O)cc3)c(-c3ccc4c(c3)OCCO4)c2c1 | 0.2 | 19 | 1.9% | / | 4.4% | / | /
CN(CCNC(=O)C1(O)c2ccccc2NC(=O)N1c1ccccc1)Cc1ccccc1 (configuration not stated) | -0.3 | 3 | -0.6% | 11% | -0.1% | -7 | 1.2
C/C(=N\NC(=O)c1nnn(-c2nonc2N)c1CSc1ccc(C)cc1)c1ccco1 | 0.1 | 15 | 12% | 2% | -0.6% | -3 | 3.4
Cc1ccc(C(=O)C2CCN(S(=O)(=O)c3ccc(C(=O)O)cc3)CC2)cc1 | 1.3 | 10 | 3.3% | 16% | 0.6% | 5 | /
Cc1cc(C(=O)NNC(=S)NC(C)c2ccccc2)cs1 (configuration not stated) | -0.2 | 7 | -0.5% | 19% | -19% | 12 | 1.7
CC(C)Cc1ccc(CN2CCCC(NC(=O)CCCN3CCCC3=O)C2)cc1 (configuration not stated) | 0.7 | 5 | -0.9% | 3% | -1.5% | -5 | -1.6
COC(=O)c1c(-c2ccccc2)csc1NC(=O)c1ccco1 | 2.3 | -4 | / | 17% | ? | -2 | 5.1
c1coc(CNc2ncnc3c2oc2ccccc23)c1 | 0.1 | -2 | 4.1%[38.3 µM] | 5% | 1.6% | -3 | 2.2
CCCCN1C(=O)C(CC(=O)NCC2CCCCC2)CC(C(=O)N(CC)CC)=C1C (configuration not stated) | 0.0 | -8 | -0.4% | / | 0.7% | / | /

Next section:
SMILES | TRPML1 agonist | TRPML1 blocker | PINK1 expr mod | Sfp PPTase inh | ClpP mod | TRPV1 PAM | Menin-MLL FL inh
CN(C)c1ccc(-c2nc3ccccn3c2Nc2ccc3c(c2)OCCO3)cc1 | 1.3 | 4 | 1.7% | / | 5.0% | / | /
Cc1cccc(Nc2nc(-c3ccccc3)nc3ccccc23)c1 | -1.0 | 1 | 6.6% | / | 4.4% | / | /
Cc1cc(-c2csc(NCc3ccccc3)n2)c(C)n1C | 1.6 | -4 | 1.0% | ? | 1.3% | -1 | -19
CCOc1ccc(Nc2nc3c(C)cccc3cc2C#N)cc1 | 0.9 | 8 | 12% | 14% | 0.1% | 27 | 1.2
CCOC(=O)c1nnn(-c2nn3nnnc3c3ccccc23)c1C | -0.4 | 10 | -0.5% | 12% | -1.5% | -22 | 5.4
Cc1cc2c(cc1S(=O)(=O)C(C)CC(=O)NCc1ccco1)OCC(=O)N2 (configuration not stated) | -0.5 | -13 | -1.0% | -6% | -2.0% | -7 | /
CC(=O)c1cccc(N2C(=O)CN(S(C)(=O)=O)CC2(C)C(=O)NC2CCCC2)c1 (configuration not stated) | 0.2 | 10 | 1.9% | / | 1.2% | / | /
COCCn1c(SCC(=O)Nc2ccc(C)cc2)nc2c(oc3ccccc32)c1=O | 1.4 | 4 | 11% | -4% | -5.9% | ? | ?
COc1ccc(NC(=O)c2oc3ccc(S(=O)(=O)N4CCOCC4)cc3c2C)c(OC)c1 | 1.1&-0.3 | 2&9 | 0.3%&1.1% | / | 0.2% | / | /
CC(=O)NCCNc1ncncc1-c1ccc(N(C)C)cc1 | / | / | -0.3% | ? | / | / | 3.0
COC(=O)c1cc(Cl)c(NC(=O)/C=C/c2ccc(Cl)cc2Cl)cc1OC | 0.4&0.2 | -2&-14 | 14µM*! | 5% | 45% | 5 | 0.9
CN1CCN(c2ncnc3c2ncn3[C@H]2CN(Cc3ccco3)C[C@@H](CO)O2)CC1 | 0.0 | 6 | -0.3% | / | -2.2% | / | /
Cc1onc(-c2ccccc2)c1CNC(=O)Nc1cccc(Cl)c1 | 3.3 | -1 | ? | 1% | / | -11 | 26
CC(=O)Nc1ccc(S(=O)(=O)NCC2CCC(C(=O)NCCCOC(C)C)CC2)cc1 (configuration not stated) | 0.6&0.5 | 24&-8 | 1.2%&2.6% | 6% | -3.1%&1.0% | -1 | -3.0
CCOC(=O)c1ccc(NC(=O)CC2C(=O)OCCN2CC)cc1 (configuration not stated) | 0.2&0.0 | 35&-25 | 0.0%&-0.9% | -13% | 0.5% | -1 | 5.3
O=[N+]([O-])c1ccc2nc(-c3cccnc3)[nH]c2c1 | -0.2 | -7 | 0.7% | -12% | 0.3% | -2 | -5.8
CCc1ccc(CNC(=O)C2CCN(c3nn4cc(-c5ccc(F)cc5)nc4s3)CC2)cc1 | 1.1 | 21 | -0.2% | / | -0.1% | / | /
CC(C)NC(=O)C1(N2C(=O)c3ccccc3C2=O)CCCC1 | -0.1 | -1 | -1.0% | / | 1.6% | / | /
Nc1c(C(=O)N2CCCC2)sc2nc(-c3ccccc3)ccc12 | 0.9 | 45 | -0.2% | -27% | / | / | 5.9
COc1cc(C(C)=O)ccc1Oc1ncnc2c1cnn2-c1ccccc1 | -0.6 | -12 | 11% | 7% | -2.6% | -4 | -1.2
C[C@@H](C[C@@H](O)[C@H](O)C(C)(C)O)[C@@H]1CC[C@]2(C)C3=CC[C@H]4C(C)(C)C(=O)CC[C@]4(C)[C@H]3CC[C@@]12C | -0.3 | 7 | 4.6% | -7% | 2.6% | -5 | -0.2
CN(C)c1ccc(CNC(=O)c2ccc(CNc3c(N4CCCCC4)c(=O)c3=O)cc2)cc1 | -0.5 | 0 | 1.2% | 5% | -0.9% | -8 | -1.3
O=C(CSc1ccc(-c2nc3ccccc3[nH]2)cn1)N1CCN(C(=O)c2ccco2)CC1 | -0.3 | 9 | ? | -4% | 32µM* | 1 | 1.1
COc1ccc(C(=O)Oc2c(CN3CCOCC3)cc(Cl)c3cccnc23)cc1OC | 0.1&-0.8 | -3 | -0.6%&-0.2% | / | -2.2%&-1.6% | / | /
Cc1cnc(NC(=O)c2nn(C)cc2[N+](=O)[O-])s1 | -0.6 | 2 | -2.7% | 4% | / | 5 | -1.8

Other records.
SMILES | TRPML1 agonist | TRPML1 blocker | PINK1 expr mod | Sfp PPTase inh | ClpP mod | TRPV1 PAM | Menin-MLL FL inh
CC(=O)c1ccc2c(c1)N(Cc1ccccc1Cl)C(=O)C(C)S2 (configuration not stated) | 1.9 | 47 | 1.4% | / | -10.0% | / | /
CN(C)S(=O)(=O)c1ccc(C(=O)OCC(=O)Nc2ccccc2OC(F)F)cc1 | 2.7 | -2 | -1.3% | 3% | 1.0% | 4 | 1.0
CC(Oc1ccccc1)C(=O)N1CCC2(CC1)Oc1ccc(F)cc1C(=O)C21CC(c2ccc(Cl)cc2)=NO1 (configuration not stated) | 0.4 | -8 | 2.7% | / | -1.2% | / | /
CC(=O)c1cccc(NC(=O)c2cnn(-c3cccc(C)c3)c2-n2cccc2)c1 | 1.0 | 23 | -0.4% | / | 2.0% | / | /
Cc1ccccc1C(=O)Nc1cccc(-c2ccc3nncn3n2)c1 | -0.6 | -6 | 1.5% | -1% | / | 25 | 1.5
CCOc1ccc(-n2c(SC(C)C)nc3c(c2=O)SCC3)cc1 | 0.6 | 4 | -3.0% | -7% | -0.6% | 8 | 0.1
NS(=O)(=O)c1ccc(CNC(=O)c2cccc(S(=O)(=O)N3CCc4ccccc43)c2)cc1 | 0.5 | -10 | 2.3% | / | -1.6% | 24 | /
COc1ccccc1Oc1ccc2c(c1)C(=O)N(c1ccc(Br)c3cccnc13)C2=O | -0.3 | -4 | 5.9%[38.3 µM] | 12% | -6.3% | 17 | 4.5
O=C(CSc1nc(Nc2ccccc2)nc(N2CCOCC2)n1)Nc1ccc2c(c1)OCCO2 | 3.7 | 15 | 0.2%[38.3 µM] | 19% | -2.3% | 7 | -1.6
CCn1c(=O)n(CC)c2cc(S(=O)(=O)Nc3ccccc3C)c(C)cc21 | 0.1 | 5 | 2.0%[38.3 µM] | 17% | -1.1% | 14 | 0.0
Cc1cccc(NC(=O)/C(C#N)=C\c2cn(CC(=O)O)c3ccccc23)c1 | 0.0 | -3 | 1.5% | 10% | / | -2 | 9.9
